Yeast UUG start: alters start codon recognition fidelity in yeast | AID 602363 | S. cerevisiae UUG-firefly luciferase reporter, luminescence/redox ratio | 0.13% of 350,000 active | activity score, % at 18.7 µM;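 active = replicate mean at a twofold rise or more, about +100% in these data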;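 note: firefly luciferase made from a UUG start codon reports start codon fidelity; reporter light over untreated wells divided by growth signal over untreated wells; some hits fall short of that in this replicate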
* marks the source's active call; other numbers are inactive results.

SMILES	Yeast UUG start
CCCNC(=O)[C@H]1[C@H](CO)[C@H]2Cn3c(ccc(-c4ccccc4F)c3=O)[C@H]2N1CCC	18
CN(C)C(=O)c1cccc(-c2ccc3c(c2)[C@H]2[C@H](CCN2C(=O)c2ccncc2)[C@@H](CO)N3C)c1	2
CCC(=O)NC[C@@H]1[C@@H](c2ccccc2)[C@@H](CO)N1C(=O)C1CC1	26
CCC(=O)Nc1ccc2c(c1)C(=O)N(C)C[C@@H](OC)[C@@H](C)CN(C(=O)Cc1cccnc1)[C@H](C)CO2	-16
C[C@@H]1CN([C@H](C)CO)C(=O)c2cc(NC(=O)Cn3cnnn3)ccc2O[C@@H]1CN(C)Cc1ccncc1	-16
CCCNC(=O)NC[C@@H]1[C@H](c2ccc(C3=CCCC3)cc2)[C@H](CO)N1C(=O)CC	-4
CCC(=O)N1CCCCN2[C@@H](CO)[C@H](c3ccc(C#Cc4ccccc4)cc3)[C@@H]2C1	-9
Cc1noc(C)c1S(=O)(=O)N(C)C[C@H]1Oc2ccc(NC(=O)Nc3ccc4c(c3)OCO4)cc2C(=O)N([C@@H](C)CO)C[C@H]1C	10
O=C(C1CCC1)N1CC[C@@H]2[C@@H](CO)Nc3ccc(C#Cc4cccc(F)c4)cc3[C@@H]21	-15
C[C@H](CO)N1C[C@H](C)[C@H](CN(C)C(=O)Nc2ccc(F)cc2)Oc2ccc(NC(=O)Nc3ccccc3)cc2C1=O	-7
CCC(=O)N1[C@@H]2CN(C(=O)c3ccccc3F)c3ccccc3[C@@H]2[C@@H]1CO	-2
CC(C)NC(=O)Nc1ccc2c(c1)CC(=O)N([C@H](C)CO)C[C@H](C)[C@@H](CN(C)Cc1ccc(C(F)(F)F)cc1)O2	25
COc1ccc(NC(=O)Nc2ccc3c(c2)C(=O)N([C@H](C)CO)C[C@@H](C)[C@H](CN(C)Cc2ccc(-c4ccccc4)cc2)O3)cc1	-2
CN1c2ccc(-c3ccc(F)cc3)cc2[C@H]2[C@H](CCN2C(=O)C2CCOCC2)[C@H]1CO	10
C[C@H](CO)N1C[C@H](C)[C@@H](CN(C)Cc2ccc(Oc3ccccc3)cc2)Oc2ccc(NS(=O)(=O)c3ccc(Cl)cc3)cc2C1=O	4
C[C@H]1CN([C@@H](C)CO)C(=O)c2cccc(NC(=O)Nc3ccccc3)c2O[C@@H]1CN(C)Cc1ccncc1	-4
O=C(c1ccccn1)N1C[C@H]2[C@@H](c3ccccc31)[C@H](CO)N2C(=O)C1CCCCC1	2
Cc1noc(C)c1S(=O)(=O)N(C)C[C@@H]1OCc2cn(nn2)CCCC(=O)N([C@H](C)CO)C[C@@H]1C	5
CN1C(=O)c2cc(NS(=O)(=O)c3ccc(Cl)cc3)ccc2OC[C@H]2O[C@H](CC(=O)O)CC[C@@H]21	29
COCC(=O)Nc1ccc2c(c1)C(=O)N(C)C[C@H](OC)[C@H](C)CN(Cc1cncnc1)[C@@H](C)CO2	-5
CO[C@H]1CN(C)C(=O)c2cc(NC(=O)c3nc4ccccc4s3)ccc2OC[C@@H](C)N(Cc2cccnc2)C[C@@H]1C	-5
CC(=O)NC[C@H]1[C@H](c2ccccc2)[C@H](CO)N1C(=O)Cc1cccnc1	10
CCC(=O)N1[C@H](CO)[C@@H]2c3ccccc3N(C(=O)Nc3ccc(Cl)cc3)C[C@@H]21	-8
C/C=C/c1ccc([C@H]2[C@H]3CN(C(=O)Nc4ccccc4F)CCCCN3[C@H]2CO)cc1	12
CC(C)NC(=O)N1C[C@H]2[C@@H](c3ccccc31)[C@@H](CO)N2Cc1ccc(Cl)cc1	-4
Cc1ccc(S(=O)(=O)N(C)C[C@H]2Oc3ccc(NC(=O)Nc4ccccc4)cc3CC(=O)N([C@H](C)CO)C[C@H]2C)cc1	6
O=C(C[C@@H]1C[C@H]2c3cc(NC(=O)CC4CC4)ccc3O[C@H]2[C@@H](CO)O1)NCc1ccccc1F	-4
O=C(c1ccccc1F)N1C[C@H]2[C@@H](c3ccccc31)[C@@H](CO)N2C(=O)c1ccc(F)cc1	9
O=C(c1ccc(F)cc1)N1CC[C@@H]2[C@@H](CO)Nc3ccc(C#Cc4ccc(F)cc4)cc3[C@@H]21	-16
COc1cccc(S(=O)(=O)N2CCCCN3[C@H](C2)[C@@H](c2ccc(C4=CCCCC4)cc2)[C@@H]3CO)c1	-10

Part of the list above, field by field.
Structure: CCC(=O)N1[C@H](CO)[C@@H]2c3ccccc3N(C(=O)Nc3ccc(Cl)cc3)C[C@@H]21
  Yeast UUG start: -8
Structure: O=C(c1ccc(F)cc1)N1CC[C@@H]2[C@@H](CO)Nc3ccc(C#Cc4ccc(F)cc4)cc3[C@@H]21
  Yeast UUG start: -16
Structure: COc1cccc(S(=O)(=O)N2CCCCN3[C@H](C2)[C@@H](c2ccc(C4=CCCCC4)cc2)[C@@H]3CO)c1
  Yeast UUG start: -10
Structure: CO[C@H]1CN(C)C(=O)c2cc(NC(=O)c3nc4ccccc4s3)ccc2OC[C@@H](C)N(Cc2cccnc2)C[C@@H]1C
  Yeast UUG start: -5

Next compounds follow:
SMILES	Yeast UUG start
O=C(NCc1ccccc1F)[C@@H]1[C@@H](CO)[C@@H]2Cn3c(cccc3=O)[C@@H]2N1CC1CC1	1
CCCC#Cc1ccc([C@H]2[C@@H](CO)N3CCCCN(CC4CC4)C[C@H]23)cc1	-3
C[C@H]1CN([C@@H](C)CO)C(=O)Cc2cc(NS(C)(=O)=O)ccc2O[C@@H]1CN(C)C	-3
CN1c2ccc(-c3cccc(C#N)c3)cc2[C@@H]2[C@@H](CCN2C(=O)CN2CCOCC2)[C@H]1CO	-9
C[C@@H]1CN([C@@H](C)CO)C(=O)Cc2cc(NC(=O)Nc3ccc(C(F)(F)F)cc3)ccc2O[C@@H]1CN(C)Cc1ccncc1	-3
CN(C)C(=O)c1ccc(-c2ccc([C@H]3[C@H](CO)N4CCCCN(C(=O)C5CCC5)C[C@@H]34)cc2)cc1	6
Cc1ccc(S(=O)(=O)N(C)C[C@H]2Oc3ccc(NC(=O)CCCN(C)C)cc3CC(=O)N([C@H](C)CO)C[C@H]2C)cc1	5
COc1ccc(C(=O)N2C[C@H]3[C@@H](c4ccccc42)[C@@H](CO)N3C(=O)NC(C)C)cc1	-6
CO[C@H]1CN(C)C(=O)c2ccc(NC(=O)C3CC3)cc2OC[C@@H](C)N(C(=O)Cc2ccccn2)C[C@H]1C	1
O=C(C[C@H]1CC[C@H]2[C@@H](COC[C@H](O)CN2C(=O)Nc2cccc(F)c2)O1)NCc1ccccc1F	10
C/C=C/c1ccc([C@@H]2[C@@H](CO)N3CCCCN(S(=O)(=O)c4ccc(F)cc4)C[C@@H]23)cc1	9
CO[C@@H]1CN(C)C(=O)c2cc(NC(=O)Cc3ccccc3)ccc2OC[C@@H](C)N(C(=O)c2ccccc2F)C[C@@H]1C	-5
COCC(=O)N1CCCCN2[C@H](C1)[C@H](c1ccc(-c3ccc(F)cc3)cc1)[C@@H]2CO	4
COc1ccc(NC(=O)N(C)C[C@H]2Oc3ccc(NC(=O)Cn4cnnn4)cc3C(=O)N([C@@H](C)CO)C[C@H]2C)cc1	-6
CCCNC(=O)Nc1ccc2c(c1)OC[C@H](C)N(Cc1ccc(-c3ccccn3)cc1)C[C@H](C)[C@H](OC)CN(C)C2=O	-3
C[C@H]1CN([C@@H](C)CO)C(=O)c2cccc(NC(=O)c3ccncc3)c2O[C@H]1CN(C)S(=O)(=O)c1ccc(Cl)cc1	-15
Cc1noc(C)c1NC(=O)Nc1cccc2c1O[C@H](CN(C)Cc1ccc(-c3ccccc3)cc1)[C@H](C)CN([C@@H](C)CO)C2=O	10
O=C(C1CCC1)N1C[C@@H]2[C@H](c3ccccc31)[C@H](CO)N2C(=O)c1ccccc1F	195*
C[C@@H]1CN([C@H](C)CO)C(=O)Cc2cc(NC(=O)C3CCCCC3)ccc2O[C@H]1CN(C)S(=O)(=O)c1ccccc1	23
COc1cccc(S(=O)(=O)N2CCCCN3[C@@H](CO)[C@H](c4ccc(C#CC(C)C)cc4)[C@@H]3C2)c1	13
CCCNC(=O)Nc1ccc2c(c1)OC[C@@H](C)N(Cc1ccccc1)C[C@H](C)[C@H](OC)CN(C)C2=O	-1
C[C@H]1CN([C@@H](C)CO)C(=O)c2cccc(NS(=O)(=O)c3cccs3)c2O[C@@H]1CN(C)Cc1ccc(Oc2ccccc2)cc1	-3
C[C@H](CO)N1C[C@H](C)[C@@H](CN(C)C(=O)Nc2ccc(F)cc2)Oc2c(NS(=O)(=O)c3ccccc3)cccc2C1=O	26
COc1cccc(-c2ccc([C@H]3[C@H]4CN(S(=O)(=O)c5cn(C)cn5)CCCCN4[C@H]3CO)cc2)c1	19
C[C@@H]1CN([C@@H](C)CO)C(=O)c2cc(NC(=O)CCN3CCOCC3)ccc2O[C@@H]1CN(C)S(=O)(=O)c1ccc(Cl)cc1	6
Cc1noc(C)c1NC(=O)Nc1cccc2c1O[C@H](CN(C)C)[C@@H](C)CN([C@@H](C)CO)C2=O	4
CC(C)NC(=O)Nc1ccc2c(c1)C(=O)N([C@@H](C)CO)C[C@H](C)[C@H](CN(C)C(=O)NC(C)C)O2	-6
OC[C@@H]1[C@@H](c2ccc(C#Cc3ccccc3)cc2)[C@@H]2CN(Cc3cncnc3)CCCCN12	6
O=C(C[C@H]1CC[C@H]2[C@@H](COC[C@@H](O)CN2C(=O)Cc2ccccc2)O1)NC1CCC1	-1
OC[C@H]1[C@@H](c2ccc(-c3ccccc3F)cc2)[C@H]2CN(Cc3cncnc3)CCCCN21	14
CO[C@@H]1CN(C)C(=O)c2ccc(NS(=O)(=O)c3ccccc3)cc2OC[C@H](C)N(C(=O)NC(C)C)C[C@H]1C	7
CO[C@H]1CN(C)C(=O)c2ccc(NC(=O)C3CC3)cc2OC[C@H](C)N(C)C[C@H]1C	-27
CCCC(=O)Nc1ccc2c(c1)C(=O)N(C)C[C@H](OC)[C@H](C)CN(Cc1ccccn1)[C@H](C)CO2	-19
C[C@@H]1CN([C@H](C)CO)C(=O)Cc2cc(NC(=O)c3ccncc3)ccc2O[C@@H]1CN(C)S(=O)(=O)c1ccc(F)cc1	-16
C/C=C/c1ccc([C@H]2[C@@H](CO)N(C(=O)Cc3cccnc3)[C@H]2CNC(C)=O)cc1	6
CN1C(=O)c2cc(NC(=O)c3cnccn3)ccc2OC[C@@H]2O[C@@H](CC(=O)N[C@H]3CCN(Cc4ccccc4)C3)CC[C@H]21	6
CNC[C@H]1Oc2ccc(NS(=O)(=O)c3ccc(OC)cc3)cc2C(=O)N([C@H](C)CO)C[C@@H]1C	-20
O=C(c1cccnc1)N1CC[C@@H]2[C@@H](CO)Nc3ccc(-c4ccc(F)cc4)cc3[C@@H]21	13
O=C(Nc1cccc(Cl)c1)N1C[C@@H]2[C@H](c3ccccc31)[C@@H](CO)N2C(=O)c1ccncc1	16
O=C(Nc1ccccc1Cl)N1C[C@@H]2[C@H](c3ccccc31)[C@@H](CO)N2C(=O)c1cccnc1	-19
C[C@@H]1CN([C@H](C)CO)C(=O)Cc2cc(NC(=O)CCN3CCOCC3)ccc2O[C@@H]1CN(C)Cc1ccc(Cl)c(Cl)c1	-5
O=S(=O)(c1ccccc1)N1CCCCN2[C@@H](CO)[C@H](c3ccc(-c4ccccc4F)cc3)[C@@H]2C1	-3
C[C@@H]1CN([C@H](C)CO)C(=O)c2cc(NC(=O)Cc3ccccc3)ccc2O[C@H]1CN(C)S(=O)(=O)c1cccs1	7
Cc1noc(C)c1NC(=O)Nc1ccc2c(c1)C(=O)N([C@H](C)CO)C[C@@H](C)[C@H](CN(C)C(=O)Nc1cccc3ccccc13)O2	-9
CN1c2ccc(C#Cc3cccnc3)cc2[C@@H]2[C@@H](CCN2C(=O)C2CCCCC2)[C@H]1CO	5
CC(=O)N1[C@H](CO)[C@@H](c2ccccc2)[C@@H]1CN(C)C(=O)CN1CCOCC1	-8
CCC(=O)N1CCCCN2[C@H](C1)[C@@H](c1ccc(-c3cccnc3)cc1)[C@@H]2CO	-1
CC(C)NC(=O)N1CCCCN2[C@H](CO)[C@H](c3ccc(C#Cc4ccccc4)cc3)[C@H]2C1	13
CCC(=O)N1C[C@@H](C)[C@H](OC)CN(C)C(=O)c2cc(NC(=O)C3CCOCC3)ccc2OC[C@@H]1C	-16
CN1c2ccc(-c3ccccc3F)cc2[C@@H]2[C@@H](CCN2C(=O)Nc2cc(F)ccc2F)[C@@H]1CO	-15

Quoted at random: three entries already listed, in no set order.
SMILES	Yeast UUG start
Cc1noc(C)c1NC(=O)Nc1ccc2c(c1)C(=O)N([C@H](C)CO)C[C@@H](C)[C@H](CN(C)C(=O)Nc1cccc3ccccc13)O2	-9
C[C@@H]1CN([C@H](C)CO)C(=O)c2cc(NC(=O)Cc3ccccc3)ccc2O[C@H]1CN(C)S(=O)(=O)c1cccs1	7
CCC(=O)N1CCCCN2[C@H](C1)[C@@H](c1ccc(-c3cccnc3)cc1)[C@@H]2CO	-1

The list continues.
SMILES	Yeast UUG start
CN1c2ccc(C3=CCCCC3)cc2[C@@H]2[C@@H](CCN2C(=O)C2CCCC2)[C@H]1CO	1
O=S(=O)(c1ccccc1F)N1CCCCN2[C@H](CO)[C@H](c3ccc(-c4ccncc4)cc3)[C@H]2C1	-6
C[C@@H]1CN([C@@H](C)CO)C(=O)c2cc(NC(=O)Nc3ccc4c(c3)OCO4)ccc2O[C@@H]1CN(C)C	-2
OC[C@H]1[C@H](c2ccc(C#CC3(O)CCCC3)cc2)[C@H]2CN(Cc3ccccc3F)CCCCN21	13
Cc1cccc(-c2ccc([C@@H]3[C@H]4CN(S(=O)(=O)c5cccs5)CCCCN4[C@H]3CO)cc2)c1	-5
CCCNC(=O)C[C@H]1CC[C@H]2[C@@H](COC[C@H](O)CN2C(=O)C2CCOCC2)O1	-6
CN1c2ccc(-c3ccccc3F)cc2[C@H]2[C@H](CCN2C(=O)Nc2ccc(F)cc2)[C@H]1CO	-9
Cc1cccc(S(=O)(=O)N2C[C@H]3[C@@H](c4ccccc42)[C@@H](CO)N3C(=O)CC2CC2)c1	27

Screening results deposited in PubChem by Broad Institute.

An excerpt; the hit share may differ from the screen's.
